# FGF22 binding: binders of human FGF22 protein, primary screen, FGF22 synaptogenesis inhibitor project, biophysical, thermal shift, single point. Fibroblast growth factor 22 (Homo sapiens), Q9HCT0. recombinant FGF22 thermal shift, SYPRO orange fluorescence; percent of sucrose octasulfate shift, DMSO zero. calls only at 9.99 µM. actives 1.5% (n = 340,000);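 active means melting point raised past a set limit in the mean and every replicate; inconclusive means no clear call; three in four hits are not shown here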
# Target sequence (Q9HCT0 whole entry, looked up): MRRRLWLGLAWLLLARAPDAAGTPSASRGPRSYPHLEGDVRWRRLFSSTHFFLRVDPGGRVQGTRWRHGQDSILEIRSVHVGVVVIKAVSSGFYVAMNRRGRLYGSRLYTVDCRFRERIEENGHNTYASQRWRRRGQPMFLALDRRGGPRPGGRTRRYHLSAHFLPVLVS
# MLL AF4-AF9 inh: inhibitors of AF4 peptide binding to AF9, primary screen, biochemical, AlphaScreen, biotin-AF4 peptide, FLAG-AF9, single point; inhibition, % at 10 µM; AID 651704, 2012; Protein AF-9 (Homo sapiens), P42568; actives 0.47% (n = 350,000);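 active means every replicate reaching a set inhibition limit, whatever the replicate mean, cut at about 25% in these data; inconclusive means mean inhibition reaches that limit but some replicates miss it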;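 further: 0% = plate neutral control median and 100% = total signal loss; the record names both 10 and 1 µM as test concentration; the first replicate is given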
# Target sequence (P42568 whole entry, looked up): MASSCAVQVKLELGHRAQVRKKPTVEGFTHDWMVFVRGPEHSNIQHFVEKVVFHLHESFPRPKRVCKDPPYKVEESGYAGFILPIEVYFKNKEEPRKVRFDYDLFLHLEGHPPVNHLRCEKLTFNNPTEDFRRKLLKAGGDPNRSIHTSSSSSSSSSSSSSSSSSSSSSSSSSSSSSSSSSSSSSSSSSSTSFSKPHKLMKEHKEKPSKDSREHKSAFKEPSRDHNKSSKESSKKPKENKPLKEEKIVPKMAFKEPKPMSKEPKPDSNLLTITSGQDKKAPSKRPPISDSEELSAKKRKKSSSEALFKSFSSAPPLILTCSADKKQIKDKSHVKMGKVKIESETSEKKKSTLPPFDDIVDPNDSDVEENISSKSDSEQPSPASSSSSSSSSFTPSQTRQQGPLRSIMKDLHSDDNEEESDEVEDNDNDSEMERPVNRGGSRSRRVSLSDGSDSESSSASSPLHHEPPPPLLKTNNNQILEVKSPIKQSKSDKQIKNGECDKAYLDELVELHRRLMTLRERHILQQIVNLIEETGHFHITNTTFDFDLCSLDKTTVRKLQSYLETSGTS
# ALR H2O2 inh: inhibitors of human ALR sulfhydryl oxidase, primary screen, biochemical, H2O2 detection, HRP-luminol luminescence, single point. FAD-linked sulfhydryl oxidase ALR (Homo sapiens), P55789. purified ALR, DTT oxidation. inhibition, % (test concentration not listed). actives 3.8% (n = 290,000). AID 485317, 2010;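 active means mean and each replicate at 75% or more; inconclusive means only one of the two met; inactive means neither met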;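 further: stock transfer was 7.5 nL into about 7.5 µL; 0% = neutral wells and 100% = wells with inactivated enzyme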
# Target sequence (P55789 whole entry, looked up): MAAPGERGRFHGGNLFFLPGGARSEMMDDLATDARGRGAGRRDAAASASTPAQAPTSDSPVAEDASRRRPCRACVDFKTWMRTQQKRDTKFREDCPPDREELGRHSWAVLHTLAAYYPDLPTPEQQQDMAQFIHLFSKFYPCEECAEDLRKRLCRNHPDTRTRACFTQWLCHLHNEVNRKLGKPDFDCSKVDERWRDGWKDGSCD
# Ecoli growth: E. coli growth inhibition, primary screen, OD600 | Escherichia coli growth, 23 h; stronger effect = lower value | OD600 absorbance (concentration not given with the values) | actives 0.21% (n = 330,000) | AID 1053175, 2014;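 active means OD600 absorbance below the run mean of sample wells minus 3.6 SD, in any replicate, cut at about 0.56 in these data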;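 further: stock transfer was 300 nL into about 60 µL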
# Vif TR-FRET: inhibitors of Vif binding to APOBEC3G peptide, primary screen, biochemical, TR-FRET, GST-Vif 1-94, biotin-A3G peptide, dose response retest (AID 1117319); TR-FRET GST-Vif / biotin-A3G peptide binding; higher % means a stronger effect; test concentration not given here; strong numbers were not always called active; inhibition, %; hits with a dose series show IC50 in µM; actives 0.57% (n = 260,000);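 active means above the screen mean plus three standard deviations and confirmed in dose response; inconclusive means results disagree or hit not tested in dose response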;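 further: Vif residues 1-94 fused to GST binding biotinylated APOBEC3G peptide 110-148; 0% = full assay without inhibitor and 100% = GST in place of GST-Vif; retest series ran down from 100 µM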
# Ecoli rRNA inh: reduced GFP signal of wild-type E. coli, primary screen, bacterial rRNA inhibitor project, GFP/RFP fluorescence, OD600, single point. actives 1.6% (n = 350,000). AID 720706, 2013. GFP signal change (wild-type ribosome), % (test concentration not listed). E. coli WT GFP vs humanized-ribosome RFP mutants, 24 h; stronger effect = lower value; DMSO median 0, no signal -100;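 active means significant combined selectivity score with lowered wild-type GFP, culture density cut under 30%, mutant RFP and density less affected; inactive means any of these conditions unmet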; further: one replicate is shown; some compounds called inactive have numbers as strong as hits
# HNF4A DNA FP: change in binding of human HNF4A to DNA, primary screen, biochemical, fluorescence polarization, FITC-DNA. actives 0.3% (n = 360,000). Hepatocyte nuclear factor 4-alpha (Homo sapiens), P41235. activity change, % at 10 µM. 1 h; in the data active means activity change above about 30%, passing the limit was not always enough;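 further: controls were the assay level and a saturating level of protein; the project sought stronger binding though the title names inhibitors; some compounds called inactive have numbers as strong as hits; positive values seem to mean higher polarization but the record does not say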
# Ecoli rRNA inh OD600: further read-out of Ecoli rRNA inh, marked with its call; OD600 change, %; measured here: OD600 growth;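 optical density of the mix in the first replicate; 0 = DMSO median and -100 = no signal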
# Ecoli rRNA inh RFP: second read-out of Ecoli rRNA inh, no call of its own (marks repeat the call); RFP signal change, %; measured here: RFP humanized mutant strains;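 first replicate; 0 = DMSO median and -100 = no signal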
# The depositor's hits bear a star; i = inactive; u = inconclusive; x = no result given. A portion of the library; rates above refer to the full screens.
# Every second line gives: ALR H2O2 inh	Ecoli growth	Ecoli rRNA inh	FGF22 binding	Ecoli rRNA inh RFP	Ecoli rRNA inh OD600	MLL AF4-AF9 inh	Vif TR-FRET	HNF4A DNA FP
> Cc1ccc(C(=O)Nc2nc3ccc(Cl)cc3s2)o1
  22	0.64	13	i	-0.1	12	-0.3	x	-1.4
> O=C1N[C@H](c2ccccc2)COCc2cn(nn2)CC[C@@H]1Cc1cccc(Cl)c1
  x	x	-2	i	-3.1	10	-2.3	x	x
> CCOc1ccc(/C=N/OCC(=O)Nc2cc(S(=O)(=O)N3CCOCC3)ccc2OC)cc1
  -6	x	5	i	-1.0	8	-2.2	x	3.6
> Cc1ccc(C)c(S(=O)(=O)Nc2ccccc2C(=O)Nc2cc(C)on2)c1
  0	0.65	x	x	x	x	x	u	-1.3
> COc1cc(C(=O)OCC#N)ccc1OCc1c(C)noc1C
  -4	0.69	10	i	-3.3	2	1.4	24%	7.1
> Cc1ccc(NC(=S)NC2CCN(Cc3ccccc3)CC2)cc1
  -2	0.69	x	x	x	x	x	-5%	-1.3
> COc1ccc(C(=O)Nc2cc(C)nc3ccccc23)cc1OC
  -1	0.7	x	x	x	x	x	-2%	-2.4
> CC(C)(C)c1ccc(S(=O)(=O)Nc2ccccn2)cc1
  0	0.69	5	i	2.2	-2	-0.6	-2%	6.1
> Cc1nn(C)cc1/C=N/O
  -4	x	x	x	x	x	x	-4%	-1.1
> O=C(Nc1cccc(C(F)(F)F)c1)c1ccc(-c2ccc(F)c(F)c2)c2ccoc12
  x	x	5	i	-2.4	12	0.5	x	-2.5
> COc1cccc(-n2c(-c3cccc(S(=O)(=O)N(C)C)c3)n[nH]c2=S)c1
  x	0.72	0	i	-12	-4	-6.3	u	3.1
> Cc1ccc(C)c(NS(=O)(=O)c2cc(C(=O)N3CCCC3)ccc2Cl)c1
  -5	0.7	3	i	-3.3	-10	1.0	-9%	-1.9
> Cc1csc(NC(=O)CSc2nc3[nH]ncc3c(=O)[nH]2)n1
  -7	0.65	16	i	3.4	7	-2.1	-11%	0.7
> CS(=O)(=O)c1ccc(C(=O)N2CC(=O)Nc3ccccc32)cc1
  -14	0.69	11	i	-1.1	20	-1.8	x	1.4
> CC1CCN(C(=O)Cn2c3ccccc3c3nc4n(c(=O)c32)CCCS4)CC1
  3	0.65	5	i	0.1	11	-1.9	-6%	4.1
> COc1cc2c3c(c1OC)C1(C=CC(=O)C=C1)CC3N(C(=O)CCC(=O)O)CC2 (centres undefined)
  -5	0.7	10	i	0.5	-2	2.6	13µM*	5.4
> Cc1c(C)c(C)c(C(=O)CCc2cccc(NC(=O)CCC(=O)O)c2)c(C)c1C
  95*	0.64	-6	i	0.9	-1	-1.3	-6%	-0.4
> Cc1cccc(NC(=O)CCCN2C(=S)NC(C)(C)CC2C)c1C (centres undefined)
  5	0.73	16	x	1.5	1	0.2	u	-5.5
> O=C(NC1CCCCC1)c1ccc(CNc2c(N3CCOCC3)c(=O)c2=O)cc1
  96*	0.71	12	i	-0.7	11	0.1	-1%	-2.4
> CC1CCC2(CC1)NC(=O)N(CC(=O)NCc1ccc(Cl)cc1)C2=O (centres undefined)
  2	0.72	-8	i	-3.9	-8	-1.9	-14%	-2.0
> CCNS(=O)(=O)c1cccc(C(=O)c2c(C)cc3ccccn23)c1
  -10	0.67	x	x	x	x	x	-6%	-0.8
> O=C1CN(C(=O)COc2ccc(Cl)c(Cl)c2)c2ccccc2N1
  x	0.66	-16	i	-2.1	-28	1.0	1%	2.4
> O=c1c2c3nc4ccccc4nc3n(CC3CCCO3)c2ncn1CCc1ccccc1 (centres undefined)
  -2	0.73	x	x	x	x	x	28%	1.1
> O=C(NC1(C(F)(F)F)NC(=O)N(Cc2ccccc2)C1=O)c1cccnc1 (centres undefined)
  x	0.67	x	x	x	x	x	3%	-2.5
> Cc1ccc(S(=O)(=O)Nc2ccc3c(c2)C(=O)N([C@H](C)CO)C[C@H](C)[C@H](CN(C)S(=O)(=O)c2c(C)noc2C)OCCCC[C@H](C)O3)cc1
  x	x	1	i	-0.8	5	2.8	x	x
> CC(C)NC(=O)c1[nH]nc2c1CCc1ccccc1-2
  -41	0.64	x	x	x	x	x	2%	-4.0
> CC(=O)Nc1ccc(OC(=O)c2ccco2)cc1
  -8	0.69	x	x	x	x	x	u	-1.8
> COc1ccc(CN(C)C(=O)Cc2ccsc2)c(OC)c1OC
  -2	0.65	9	i	-0.4	11	-2.3	x	2.2
> CCN1CCN(C(=O)c2nn(C)c3c2CS(=O)(=O)c2ccccc2-3)CC1
  -7	0.66	4	i	-1.8	15	2.9	u	0.1
> CCOc1ncccc1C(=O)OCc1ccc(C(=O)OC)cc1
  0	0.68	-18	i	-8.0	-27	-2.2	8%	3.4
> Fc1cccc(CN2CCN(Cc3nc(CCc4ccccc4)no3)CC2)c1
  -1	0.7	2	i	15	7	1.4	-6%	-2.8
> Cc1csc(NC(=O)c2nc3nc(C)cc(C)n3n2)n1
  -12	0.68	x	x	x	x	x	-4%	1.2
> CCCOc1ccc(N/C=C/C(=O)c2ccc(OC)c(OC)c2)cc1
  -3	x	-6	i	0.5	1	-23	-2%	1.9
> O=C(Nc1ccc(C(=O)N2CCCCC2)cc1)c1ccc([N+](=O)[O-])cc1
  -4	0.72	-13	i	-3.6	-8	-1.5	x	-1.9
> CCCc1c(C)c2c(C)[nH]nc2oc1=O
  -2	0.72	x	x	x	x	x	u	-2.6
> O=C(c1ccccc1)N1CC[C@@H]2[C@H]1c1cc(C#Cc3cccnc3)ccc1N[C@@H]2CO
  x	x	-11	i	5.4	10	-0.8	x	x
> O=C(Nc1ccccc1F)N1C[C@H]2[C@@H](c3ccccc31)[C@H](CO)N2C(=O)Nc1ccccc1
  x	x	-1	i	-1.7	-9	-0.2	x	x
> Cc1ccccc1CC1(CO)CCCN(Cc2ccc3c(c2)OCCO3)C1 (centres undefined)
  0	0.68	2	i	-3.0	-11	4.5	u	3.1
> COc1cccc(NC(=O)N(C)C[C@H]2Oc3cc(-c4cccc(C(=O)N(C)C)c4)ccc3S(=O)(=O)N([C@@H](C)CO)C[C@H]2C)c1
  x	x	1	i	-6.0	-2	-1.0	x	x
> COC(=O)c1ccc(NC(=O)CCn2cccc2)cc1
  3	0.72	x	x	x	x	x	1%	-0.9
> CCNc1nc(NCC)nc(OCCOC(C)=O)n1
  -6	0.67	8	x	1.5	12	x	0%	2.2
> COc1ccc(NC(=O)c2cccc(N3C(=O)c4ccc(C(=O)Nc5ccc(OC)c(O)c5)cc4C3=O)c2)cc1O
  x	0.69	4	i	-2.3	5	0.1	x	0.6
> COc1ccc(OC)c(S(=O)(=O)NCCc2cn3ccsc3n2)c1
  -6	0.8	2	i	-5.1	12	-1.2	-4%	4.5
> CC(=O)N1[C@@H]2c3ccc(C4=CCCC4)c(=O)n3C[C@@H]2[C@@H](CO)[C@@H]1C(=O)Nc1ccccc1
  x	x	6	i	-3.4	18	-20	x	x
> COc1ccc2c3c([nH]c2c1)[C@@H](CO)N(C(=O)c1ccccc1)CC31CN(C(=O)c2cccc(F)c2)C1
  x	x	1	i	4.2	14	-5.1	x	x
> Cc1sc2nc(CN3CCCCC3)nc(Cl)c2c1C
  98*	0.64	5	i	0.8	-4	3.0	25%	1.3
> COc1cc(C(O)c2nc(-c3cccc(C(=O)O)c3)cs2)ccc1F (centres undefined)
  x	x	-5	i	3.0	-8	1.6	x	-5.4
> C#CCOCCOCCOCCNc1nc(N2CCN(C(=O)[C@H](CCCCN)n3cc(CN)nn3)CC2)nc(N2CCN(C(=O)[C@H](CCCCN)n3cc(CN)nn3)CC2)n1
  -1	x	25	i	1.4	20	57*	x	59*
> CC1(C(=O)NCc2cccc3ccccc23)CCN1Cc1ccc(OC(F)(F)F)cc1 (centres undefined)
  x	x	-3	i	-2.5	8	-17	x	4.0
> CCOC(=O)c1sc(NC(=O)CCC(=O)O)nc1C
  -10	0.71	7	i	-0.5	10	-0.9	-8%	1.7
> Cc1ccc(C)c(NC(=S)NNC(=O)c2csc(C)c2)c1
  14	0.71	-8	i	1.0	-19	6.3	x	0.6
> C/C=C/c1ccc2c(c1)O[C@@H](CN(C)C(=O)CN1CCOCC1)[C@@H](C)CN([C@H](C)CO)S2(=O)=O
  x	x	-1	i	3.1	-9	0.0	x	x
> COC(=O)C1CN(S(=O)(=O)c2ccc(NC(C)=O)cc2)CCS1 (centres undefined)
  -5	0.72	x	i	x	x	0.9	x	-2.5
> C[C@@H]1CN([C@H](C)CO)C(=O)c2cc(NS(=O)(=O)c3ccc(F)cc3)ccc2O[C@@H](C)CCCCO[C@@H]1CN(C)C
  x	x	5	i	-0.8	2	-3.2	x	x
> CCc1ccc(Nc2nnc(SCC(=O)N(C)CC(=O)Nc3ccccc3CC)s2)cc1
  -1	0.58	9	i	0.0	18	3.6	-5%	1.1
> Cc1nn(CC#N)c(=O)n1N(C)c1ncc(C(F)(F)F)cc1Cl
  1	0.73	13	i	0.4	6	-0.4	0%	0.1
> CCOc1cc(CNc2ncc(-c3ccc(OC)cc3)n2C)ccc1O
  78*	0.7	x	x	x	x	x	12%	-1.2
> Cc1cc(-c2c(C)n([O-])c(C)c(C)[n+]2=O)ccc1F
  0	0.67	x	x	x	x	x	7%	0.1
> COc1cc(NC(=O)c2cccs2)ccc1NC(=O)Cc1ccccc1
  -6	0.64	-17	i	5.8	-27	-0.6	x	-2.4
> C[C@H]1CN([C@@H](C)CO)C(=O)Cc2cc(NC(=O)CCCCCC(=O)Nc3ccccc3N)ccc2O[C@@H]1CN(C)S(=O)(=O)c1ccccc1
  x	x	1	i	1.3	8	-0.8	x	x

# Further compounds follow:
# Every second line gives: ALR H2O2 inh	Ecoli growth	Ecoli rRNA inh	FGF22 binding	Ecoli rRNA inh RFP	Ecoli rRNA inh OD600	MLL AF4-AF9 inh	Vif TR-FRET	HNF4A DNA FP
> COc1ccccc1C1C2=C(CC(C)(C)CC2=O)N(CC(=O)O)C2=C1C(=O)CC(C)(C)C2
  -6	0.73	5	i	-0.7	7	4.6	x	-2.2
> O=C(NCCOC(=O)C1COc2ccccc2O1)c1cccnc1 (centres undefined)
  1	0.75	x	x	x	x	x	1%	-1.1
> Cc1nnc(NCCc2ccccc2)[nH]c1=O
  -9	0.64	x	x	x	x	x	6%	-5.8
> COc1ccc(N2CCN(CC(=O)Nc3nnc(-c4ccccc4)s3)CC2)cc1
  -3	0.69	x	x	x	x	x	-5%	4.3
> COc1ccc(S(=O)(=O)N2CCCCC2)cc1NC(=O)c1ccc2ccccc2n1
  -1	0.72	x	x	x	x	x	-5%	4.1
> O=C1NC[C@H](Cc2ccc(O)cc2)N(CC2CCCCC2)C1=O
  54	x	3	i	1.0	5	1.6	0%	0.4
> COc1cccc(C(=O)Nc2ccc3c(c2)C(=O)N(C)C[C@@H](OC)[C@H](C)CN(C(=O)C2CCCC2)[C@@H](C)CO3)c1
  x	x	-1	i	5.3	-2	-6.8	x	x

# High-throughput results as filed in PubChem BioAssay.
